GLA inh pH 4.5 – inhibitors of human alpha-galactosidase A at pH 4.5. P06280. purified enzyme, 4-MU-alpha-Gal fluorescence, pH 4.5. 230,000 tested, under 10 active. activity change, negative = inhibition, % at 105 µM; inconclusive = small, poorly fitted or top-dose-only inhibition, or a rising curve; inactive = flat fitted curve, though single readings scatter; no compound was filed as active;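 further: 0% = full activity with enzyme and -100% = basal without enzyme; dose as in the result columns while the protocol names 77 µM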
miR-21 FLuc – raises the signal of a miR-21 reporter. HeLa miR-21 FLuc reporter, luciferase, 48 h. 340,000 tested, under 10 active. Potency, µM (titrated, usually from 38.3 µM), without a hit: at the top dose reporter change, positive = more light; active = well fitted rising curve with a large enough effect; inconclusive = small, poorly fitted or top-dose-only effect; inactive = no such curve, though single readings can be large or run the other way;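 further: % of control where 0% means no effect; miR-21 action dims this reporter so a rising signal means less miR-21 action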
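Using DMEM plus 10% FBS, HeLa miR-21-FLuc cells are incubated with test compounds (final up to about 40uM) for 48 hours; firefly luciferase signal is then imaged following reagent-mediated lysis.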
Rango-impB inh – inhibitors of Rango-importin beta complex formation | Q14974 | Rango CFP/YFP FRET sensor + importin beta, 45 min | Potency, µM (doses to about 92.2 µM), inactives show at the top dose inhibition of complex formation | 0.031% of 340,000 active | AID 540263; active = rising FRET ratio curve, often small or poorly fitted; inconclusive = mostly compound fluorescence or quenching in the first reads; inactive = flat curves in all reads;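 further: potency means the concentration at half of the fitted maximal effect; 0% = DMSO wells and 100% = buffer wells lacking importin beta; nearly all actives have a fitted effect of over 15% in size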
Target sequence (Q14974 whole entry, looked up): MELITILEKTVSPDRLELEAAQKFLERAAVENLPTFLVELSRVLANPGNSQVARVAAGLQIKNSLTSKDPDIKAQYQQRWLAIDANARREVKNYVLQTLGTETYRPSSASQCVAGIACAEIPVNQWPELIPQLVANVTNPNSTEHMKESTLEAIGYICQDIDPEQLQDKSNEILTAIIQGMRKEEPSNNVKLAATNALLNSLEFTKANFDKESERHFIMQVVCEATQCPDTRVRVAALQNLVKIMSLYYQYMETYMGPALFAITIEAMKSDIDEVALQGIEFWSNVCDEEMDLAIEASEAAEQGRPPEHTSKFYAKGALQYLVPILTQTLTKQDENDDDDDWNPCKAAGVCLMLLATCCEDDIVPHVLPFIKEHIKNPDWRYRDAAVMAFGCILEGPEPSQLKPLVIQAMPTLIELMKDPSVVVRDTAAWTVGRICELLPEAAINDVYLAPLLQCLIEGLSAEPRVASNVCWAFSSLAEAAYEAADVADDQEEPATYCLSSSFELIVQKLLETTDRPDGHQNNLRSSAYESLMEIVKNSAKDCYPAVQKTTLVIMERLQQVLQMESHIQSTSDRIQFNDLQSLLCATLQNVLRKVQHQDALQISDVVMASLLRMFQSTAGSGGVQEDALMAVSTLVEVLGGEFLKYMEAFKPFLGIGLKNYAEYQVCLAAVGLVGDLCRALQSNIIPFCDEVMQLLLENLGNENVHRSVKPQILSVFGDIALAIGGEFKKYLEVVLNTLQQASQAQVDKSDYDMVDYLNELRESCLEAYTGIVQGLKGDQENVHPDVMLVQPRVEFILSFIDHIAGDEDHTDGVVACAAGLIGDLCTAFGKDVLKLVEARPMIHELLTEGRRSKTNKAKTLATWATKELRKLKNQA
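FRET biosensor (snurportin 1 IBB flanked by EYFP and cerulean), 50 nM, with compound 5 min, then 0.125 microM importin beta in PBS, 1 mM DTT, 0.02% Tween-20, 0.1% BSA. CFP/YFP ratio read after 45 min at room temperature; pre-read flags interference.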
Rango dissoc inh – inhibitors of RanGTP-induced Rango-importin beta complex dissociation; O95149+P62826; Biochemical FRET Rango-importin beta, RanGTP-induced dissociation; Potency, µM (titrated, usually from 46.1 µM), for inactives: top-dose activity change, negative = inhibition; 0.071% of 340,000 active; active means falling FRET ratio curve, often poorly fitted, with flat reads before Ran was added; inconclusive means other falling curves, or compound fluorescence or quenching; inactive means flat or rising ratio curve;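 further: potency means the concentration at half of the fitted maximal effect; % of control where 0% means no effect; nearly all actives have a fitted effect of over 45% in size; -100% = wells without RanGTP and RCC1; the record marks most hits as doubtful in a second field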
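Compounds sat 5 min at room temperature with 0.1 uM Rango biosensor plus 0.25 uM importin beta, then FRET pre-read. RanGTP-RCC1 (0.6 uM Ran, 2mM GTP, 0.2 uM RCC1) added for 45 min, and the CFP/YFP post-read measured blocked complex dissociation.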
The depositor's hits bear a star; ? = inconclusive; . = not tested or not shown; & = joins results of further samples. The list is partial; rates above refer to the full screens.

SMILES	GLA inh pH 4.5	miR-21 FLuc	Rango-impB inh	Rango dissoc inh
C/C(=N\NC(=O)CC#N)c1cc2ccc(O)cc2oc1=O	?	2%	?	?
CCOc1ccc(Cc2onc3c2C(=O)CCC3)cc1OCC	-5	-1%	-1.7%	1%
CC(CCc1ccccc1)NC(=O)c1ccc(F)cc1 (stereo unspecified)	.	-9%	1.7%	6%
O=C(NNC(=O)C1CCN(S(=O)(=O)c2cccc(Cl)c2)CC1)C1CC1	8	4%	1.0%	-10%
Cc1ccc(S(=O)(=O)Nc2ccc(O)c3cccnc23)cc1	.	?	3.4%	-5%
Cc1cccc(NC(=O)Nc2ccc(C)cc2Br)c1	4	-55%	-1.0%	-9%
Nc1nc(SCc2ccccc2Cl)n[nH]1	5	-26%	-0.1%	0%
CCCn1c(N)cc(=O)n(C)c1=O	-8	1%	0.4%	-15%
O=C(/C=C(\c1ccc(Cl)cc1)n1cncn1)c1ccc(Cl)cc1	0	0%	-0.3%	1%
COCCN(C(=O)c1ccco1)C(C(=O)NC1CCCC1)c1cccs1 (stereo unspecified)	-3	-2%	3.9%	21%
CCS(=O)(=O)N1CCN(c2cccc(C)c2C)CC1	-13	-4%	-4.2%	1%
CC1(c2ccc3ccccc3c2)NC(=O)N(CC(N)=O)C1=O (stereo unspecified)	.	0%	-3.6%	2%
COc1ccc(NCc2nnc(-c3ccccc3)o2)cc1	.	-24%	-1.3%	16%
CCn1ncc(/C=N/NC(=O)c2ccc3c(c2)OCO3)c1C	6	2%	-0.1%	-3%
CCN(CC)c1ccc(C=NNc2ccc([N+](=O)[O-])cn2)cc1	.	.	?	20%
O=C(Nc1ccon1)c1cc2c(s1)CCCC2	-4	-29%	0.8%	4%
CC1=NN(c2ccc(Cl)cc2)C(=O)C1	0	0%	-2.3%	18%
CCCCCCN(C(=O)CCCN1C(=O)NC(c2ccc([N+](=O)[O-])cc2)C(C(=O)OCc2ccccc2)=C1C)C(C)C(=O)NCCCC (stereo unspecified)	.	.	0.0%	0%
COc1cscc1C(=O)O	6	0%	1.2%	1%
Cn1c(CNc2ccc(O)cc2)nc2ccccc21	.	-63%	0.6%	0%
C=CCn1c(SCC(=O)Nc2ccc(C(=O)O)cc2)nc2sc(C)c(C)c2c1=O	.	.	3.5%	11%
CCn1c(SCC(=O)NCCc2ccccc2)nnc1C(C)C	-7	1%	-6.6%	-2%
CC(NC(=O)c1ccco1)C(=O)N1CCN(c2ccccc2)CC1 (stereo unspecified)	.	-5%	-1.2%	5%
CCSc1nc2n(n1)C(c1cccc(F)c1)C1=C(CCCC1=O)N2 (stereo unspecified)	18	-1%	-2.4%	37%
C[C@H]1COC2=C1C(=O)C(=O)c1c2ccc2c1CCCC2(C)C	-2	-3%	-1.8%	3%
CSc1ccccc1OCc1cc(C(=O)N2CCSCC2)no1	.	-60%	-1.6%	-4%
COc1cc(OC)cc(C(=O)N[C@H](C(=O)OCC(=O)Nc2sccc2C#N)C(C)C)c1	2	-5%	-5.6%	-4%
CCN1C[C@@H]2[C@@H]3C(=O)N(C)C(=O)[C@@H]3[C@](Cc3ccccc3)(C1=O)N2C(=O)c1ccc(Cl)c(Cl)c1	.	.	2.1%	-6%
CC(C)c1cc(NCCOCCO)n2c(nc3ccccc32)c1C#N	.	0%	0.0%	8%
COC(=O)/C(=C1/Oc2ccc(C)cc2S1)C(F)(F)F	1	-42%	0.0%	9%
CC(=O)c1cccc(NCC(=O)N2CCN(S(=O)(=O)c3ccccc3)CC2)c1	.	.	-1.7%	3%
COc1ccc(NS(=O)(=O)c2ccc(C)c(C(=O)NCC(c3ccco3)N(C)C)c2)cc1 (stereo unspecified)	.	.	-4.5%	16%
CN1CCN(c2oc(Cc3cccc4ccccc34)nc2C#N)CC1	-3	-13%	-2.9%	1%
O=c1c2cccnc2[nH]c(=S)n1CCCN1CCN(c2ccc(F)cc2)CC1	-5	-9%	-1.4%	2%
CCC1CCCCN1CCCNC(=O)c1ccc(CS(=O)(=O)Cc2ccc(Cl)cc2)o1 (stereo unspecified)	.	-2%	2.5%	-1%
CCN(CC(=O)NC(C)(C)C)C(=O)C(c1ccccc1)c1ccccc1	-8	-2%	0.8%	0%
Cc1ccc(C)c(OCc2cc(C(=O)N3CCC(N4CCCC(O)C4)CC3)no2)c1 (stereo unspecified)	.	-6%	1.3%	-14%
CC(C)C(CCNC(=O)CN1C(=O)c2ccccc2C1=O)c1ccco1 (stereo unspecified)	8	-2%	1.1%	11%
O=C(Cc1ccc(F)cc1)c1ccc(O)cc1O	-1	-48%	9.3%	15%
CN(C)C(/C=C/Nc1ccc(O)cc1)=C(C#N)C#N	8	-2%	1.6%	-10%
O=C(CCN1C(=O)C2C3CCC(C3)C2C1=O)Nc1cccc(Cl)c1 (stereo unspecified)	.	0%	-1.0%	17%
CCOCc1cnc(C)nc1NCC(=O)c1c(C)n(C)c2ccc(OC)cc12	0	7%	-0.2%	-1%
CCn1c2ccc(/C(C)=N\O)cc2c2cc(/C(C)=N\O)ccc21	-1	-2%	-2.5%	0%
COc1cccc(CNC(=O)c2nnn(CC(=O)Nc3ccc(C)c(C)c3)c2N)c1	3	-28%	-4.5%	1%
O=C(NCc1ccc(Cl)cc1)C1CCN(S(=O)(=O)c2ccc(F)cc2)CC1	-20	9%&6%	0.9%	7%
N#Cc1ccccc1NC(=O)Nc1cccs1	-3	0%	-0.5%	-2%
CN(Cc1ccccc1)C1(CNC(=O)CCC(F)(F)F)Cc2ccccc2C1	.	8%	0.5%	-9%
O=C(COC(=O)/C=C/c1cccc(Br)c1)NC1CCCCCC1	.	.	-0.5%	2%
O=C(c1cc(COc2ccc(F)cc2Cl)on1)N1CCCCCC1	.	-72%	?	?
CCCCCc1cc(=O)oc2c(C(CCN3CCCC(C)C3)c3ccc4c(c3)OCO4)c(OC)cc(OC)c12 (stereo unspecified)	-10	18%	-3.7%	2%
CCOC(=O)[C@@H]1[C@H]2COc3cc(OC)ccc3[C@@H]2N2C(=O)N(c3ccc(F)cc3)C(=O)[C@@]12C	.	.	4.9%	-1%
Cc1ccc(-c2csc3nc(C)n(-n4c(C)ccc4C)c(=O)c23)o1	-9	-13%	-1.5%	0%
Cc1cccc(NC(=S)N2CCN(c3ccccc3F)CC2)c1C	.	-5%	-1.0%	3%
CC(C)(C)OC(=O)N1CCN(c2ccc(NC(=O)Cn3nnc(-c4ccccc4)n3)cc2)CC1	10	-8%	3.8%	14%
CC(C)(C)OC(=O)C[C@H]1C/C=C\C[C@@H](CC(=O)N[C@H](CO)Cc2ccccc2)C(=O)NC[C@H](c2ccccc2)OC1=O	.	.	-3.4%	-8%
COC(=O)c1cccnc1-n1c(=O)c2cccnc2n(CC(=O)Nc2ccc(Br)cc2)c1=O	-9	-7%	0.6%	-2%
COCn1c(-c2ccccc2)nc2ccccc21	3	-23%	0.0%	24%
S=C1NC2=C(CCC/C2=C\c2ccc(Cl)cc2)C(c2ccc(Cl)cc2)N1 (stereo unspecified)	-10	6%	1.2%	0%
COc1ccccc1CC(=O)Nc1ccc2c(c1)CCC2	4	-27%	5.8%	6%
COc1ccc(/C(N)=N/OC(=O)Cc2ccc(C)cc2)cc1OC	-1	-31%	0.3%	17%

Sorted by value in miR-21 FLuc (ascending): 5 of the compounds above
SMILES	GLA inh pH 4.5	miR-21 FLuc	Rango-impB inh	Rango dissoc inh
COc1ccc(/C(N)=N/OC(=O)Cc2ccc(C)cc2)cc1OC	-1	-31%	0.3%	17%
COC(=O)c1cccnc1-n1c(=O)c2cccnc2n(CC(=O)Nc2ccc(Br)cc2)c1=O	-9	-7%	0.6%	-2%
CCn1c2ccc(/C(C)=N\O)cc2c2cc(/C(C)=N\O)ccc21	-1	-2%	-2.5%	0%
O=C(CCN1C(=O)C2C3CCC(C3)C2C1=O)Nc1cccc(Cl)c1 (stereo unspecified)	.	0%	-1.0%	17%
S=C1NC2=C(CCC/C2=C\c2ccc(Cl)cc2)C(c2ccc(Cl)cc2)N1 (stereo unspecified)	-10	6%	1.2%	0%

Profiles as entered above:
Listed for `COC(=O)c1cccnc1-n1c(=O)c2cccnc2n(CC(=O)Nc2ccc(Br)cc2)c1=O` : GLA inh pH 4.5: -9; miR-21 FLuc: -7%; Rango-impB inh: 0.6%; Rango dissoc inh: -2%
Listed for `Cc1ccc(-c2csc3nc(C)n(-n4c(C)ccc4C)c(=O)c23)o1` : GLA inh pH 4.5: -9; miR-21 FLuc: -13%; Rango-impB inh: -1.5%; Rango dissoc inh: 0%

The listing continues.
SMILES	GLA inh pH 4.5	miR-21 FLuc	Rango-impB inh	Rango dissoc inh
CCOC(=O)N1CCN(C(=O)COC(=O)COc2c(C)cc(C)cc2C)CC1	.	.	4.7%	15%
CC(=O)OCCNc1cc(SC(C)C)c2nonc2c1[N+](=O)[O-]	3	3%	?	-22%
CCOC(=O)[C@@H]1[C@H]2COc3cc(OC)ccc3[C@H]2N2C(=O)N(c3cccc(Cl)c3)C(=O)[C@]12C	.	-6%	0.9%	-6%
O=C(O)COc1ccc(/C=N/O)cc1Br	0	4%	0.8%	1%
COc1ccccc1-c1nc(C(=O)NCC2CCCO2)cc2c1[nH]c1ccccc12 (stereo unspecified)	.	12%	0.6%	1%
COc1ccc(CCNS(=O)(=O)c2ccc3c(c2)NC(=O)C(C)S3)cc1OC (stereo unspecified)	.	8%	1.0%	17%
O=C(NN1C(=O)C2C(c3ccccc3)C=CC(c3ccccc3)C2C1=O)c1ccncc1 (stereo unspecified)	-6	-2%	-0.1%	3%
NC(=O)C[n+]1cccc(CNC(=O)c2ccc(OC(F)F)cc2)c1	6	1%	1.4%	28%
Cc1ncsc1C(=O)N1CCCC(CNS(=O)(=O)c2cccs2)C1 (stereo unspecified)	-21	-3%	0.8%	-1%
CC1CCCN(c2ccc3nc4ccccc4c(=O)n3n2)C1 (stereo unspecified)	-3	25%	-3.9%	-14%
Cc1noc(C)c1COc1ccc(C(=O)NNC(=O)c2ccccc2O)cc1	.	.	4.7%	0%
O=C(CN(C(=O)Cn1nnc(-c2ccc(F)cc2)n1)C1CCCC1)NC1CCCC1	4	1%	12%	1%
COc1ccc(OC)c(CNn2c(-c3cccc(C)c3)nc3ccccc3c2=O)c1	1	3%	6.6%	0%
N#CCCN(Cc1cccnc1)C(=S)NC1CC2C=CC1C2 (stereo unspecified)	-11	-3%	2.3%	-10%
CCOC(=O)c1cnc(SCC(=O)Nc2ccc3c(c2)OCCO3)nc1N	0	-5%	-0.1%	41%
Cn1c(CNC(=O)c2ccco2)nnc1SCC(=O)c1ccc(Br)cc1	.	4%	-5.3%	10%
CCC(C)(C)NC(=S)Nc1ccc(-c2nc3ccc(C)cc3s2)cc1	3	-34%	?	?
COc1ccc(NC(=O)CN(C)S(=O)(=O)c2ccc3c(c2)c(=O)n(C)c(=O)n3C)cc1	.	-1%&-2%	-3.6%	-18%
CCN(CC)Cc1c(C(=O)N2CCc3ccccc3C2)nc2ccc(Cl)cn12	-2	-1%	0.3%	-7%
Cc1ccc(NC(=O)CO/N=C(\N)c2ccccc2)cc1C	.	.	0.3%	1%
Cc1ccc[n+](C(C(=S)NCc2ccco2)=C([O-])c2ccccc2Cl)c1	.	.	-0.7%	0%
CN(C)C(=O)c1nc2ccccc2s1	0	-29%	-1.2%	-12%
C[C@H](CO)N1C[C@H](C)[C@@H](CN(C)S(=O)(=O)c2ccccc2)Oc2ccc(NC(=O)CCC(F)(F)F)cc2C1=O	.	.	-1.3%	1%
CCO/N=C/c1ccc(OC)c(Oc2nc(OC)cc(OC)n2)c1	-30	10%	-0.6%	-8%
O=C(Nc1ccc(-c2cn3c(n2)SCC3)cc1)c1ccc2ccccc2n1	-5	2%	-1.4%	?
Cc1ccc(C(=O)NNC(=O)CSc2nnc(-c3ccncc3)n2C)cc1	-4	0%	-1.8%	-6%

Quoted from the entries so far (2 entries):
SMILES	GLA inh pH 4.5	miR-21 FLuc	Rango-impB inh	Rango dissoc inh
C[C@H](CO)N1C[C@H](C)[C@@H](CN(C)S(=O)(=O)c2ccccc2)Oc2ccc(NC(=O)CCC(F)(F)F)cc2C1=O	.	.	-1.3%	1%
CCO/N=C/c1ccc(OC)c(Oc2nc(OC)cc(OC)n2)c1	-30	10%	-0.6%	-8%

Source: PubChem (National Center for Advancing Translational Sciences (NCATS))
